VDR inhibitor: vitamin D3 receptor (human) inhibition | Potency, µM, for inactives: max response, negative = inhibition, actives largely listed as inhibitors | P11473 | hit rate 0.93% among 400,000 | VDR-SRC2-3 peptide fluorescence polarization, 2 h | AID 504847; active = well fitted inhibition curve with a large enough effect; inconclusive = small, poorly fitted or top-dose-only effect, or another doubt; inactive = no such curve, though single readings can be large or run the other way; note: series mostly up to about 120 µM
Target sequence (P11473 whole entry, looked up): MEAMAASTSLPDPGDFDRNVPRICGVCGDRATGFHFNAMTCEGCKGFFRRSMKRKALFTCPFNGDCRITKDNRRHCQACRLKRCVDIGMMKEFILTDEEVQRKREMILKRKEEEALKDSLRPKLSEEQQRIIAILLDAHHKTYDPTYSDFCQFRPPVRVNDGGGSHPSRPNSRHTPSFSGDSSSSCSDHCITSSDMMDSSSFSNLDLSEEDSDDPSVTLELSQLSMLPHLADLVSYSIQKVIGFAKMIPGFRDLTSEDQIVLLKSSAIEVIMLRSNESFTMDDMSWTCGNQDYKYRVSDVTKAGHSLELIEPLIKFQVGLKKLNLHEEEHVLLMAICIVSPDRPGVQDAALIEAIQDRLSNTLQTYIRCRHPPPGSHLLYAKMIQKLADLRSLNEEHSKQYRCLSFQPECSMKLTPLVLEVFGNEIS
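The screen uses fluorescence polarization to detect compounds that interfere with recruitment of the SRC2-3 coactivator peptide to VDR; plates are read after 2 h at room temperature.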
Starred values were filed as active, the others as inactive; & = joins results of further samples; [ ] = remark or other dose. % is set by controls: 0 for no effect and ±100 for the full control effect; potency is the fitted concentration of half-maximal effect.

For Cc1nn(-c2cccc(Cl)c2)c(Cl)c1/C=N/NC(=O)c1cccnc1 the results were VDR inhibitor -24%.
`NCC1OC(O[C@H]2[C@H](O)[C@@H](OC3C(O)C(N)CC(N)C3OC3OC(CO)C(O)C(O)C3N)O[C@@H]2CO)C(N)C(O)C1O` (stereo partly specified) gave VDR inhibitor -1%.
`CCCCSc1ncc(C(=O)OCC)c(N)n1` gave VDR inhibitor -25%.
For O=C1CC(c2cccc(Cl)c2)CC(O)=C1C=NCCCO (stereo unspecified) the results were VDR inhibitor -5%.
O=C(NCc1cccnc1)c1cccc(S(=O)(=O)Nc2cccc(Cl)c2)c1 was read as VDR inhibitor -8%.
Cc1cc2c(=O)n(C)c(SCC(=O)Nc3cccc(F)c3)nc2s1 was read as VDR inhibitor -2%.
O=C(CC(CC(=O)c1ccccc1)c1ccccn1)c1ccccc1 was read as VDR inhibitor 5%.
COc1ccc(C(=O)c2cc3c(cc2[N+](=O)[O-])OCCO3)cc1 was read as VDR inhibitor -18%.
Screening Cc1cc(C)c(NC(=O)CSc2nc(C)cc(C)c2C#N)c(C)c1 returned VDR inhibitor -17%.
For O=C(N/N=C/c1cccs1)c1ccc2ncccc2c1 the results were VDR inhibitor 5%.
COc1ccc(C(=O)NC(C)c2nnc(SCC(=O)Nc3nc(C)cs3)n2C)cc1 (stereo unspecified) was read as VDR inhibitor -4%.
Fc1ccc(N/N=C(/c2ccccc2)c2ccccn2)cc1 was read as VDR inhibitor -15%.

Of the compounds above, 2 have an aryl methoxy group:
COc1ccc(C(=O)c2cc3c(cc2[N+](=O)[O-])OCCO3)cc1 was read as VDR inhibitor -18%.
COc1ccc(C(=O)NC(C)c2nnc(SCC(=O)Nc3nc(C)cs3)n2C)cc1 (stereo unspecified) was read as VDR inhibitor -4%.

Looked up one by one from the list above (five):
`NCC1OC(O[C@H]2[C@H](O)[C@@H](OC3C(O)C(N)CC(N)C3OC3OC(CO)C(O)C(O)C3N)O[C@@H]2CO)C(N)C(O)C1O` (stereo partly specified) gave VDR inhibitor -1%.
COc1ccc(C(=O)NC(C)c2nnc(SCC(=O)Nc3nc(C)cs3)n2C)cc1 (stereo unspecified) was read as VDR inhibitor -4%.
COc1ccc(C(=O)c2cc3c(cc2[N+](=O)[O-])OCCO3)cc1 was read as VDR inhibitor -18%.
Screening Cc1cc(C)c(NC(=O)CSc2nc(C)cc(C)c2C#N)c(C)c1 returned VDR inhibitor -17%.
For O=C1CC(c2cccc(Cl)c2)CC(O)=C1C=NCCCO (stereo unspecified) the results were VDR inhibitor -5%.

(continued)
CC(=O)Nc1ccc(S(=O)(=O)Nc2ccccc2N2CCOCC2)cc1 was read as VDR inhibitor 1%.
c1ccc2sc(NC3=NCN(CCN4CCOCC4)CN3)nc2c1 was read as VDR inhibitor -9%.
Screening Cc1ccc(CNS(=O)(=O)c2ccc(-n3cnnn3)c(C)c2)cc1 returned VDR inhibitor 10%.
`CC1=CC(C)(C)N2C(=O)C3(C(C#N)=C(N)Oc4cc(O)ccc43)c3c(C)c(C)cc1c32` (stereo unspecified) gave VDR inhibitor -16%.
CCC(c1nnc(SCC(=O)Nc2cc(C)on2)o1)N(C)C (stereo unspecified) was read as VDR inhibitor 3%.
CCN1CCN(S(=O)(=O)c2ccc(C(=O)Nc3ccccc3)cc2)CC1 was read as VDR inhibitor -6%.
`CC(C)CCOCC(=O)Oc1ccccc1C(=O)O` gave VDR inhibitor 6%.
`O=c1cc(O)c(-c2cccc(Cl)c2)c(Cl)[nH]1` gave VDR inhibitor -10%.
For O=C(C1=C(O)C(=O)N(CCN2CCOCC2)C1c1ccc(Br)cc1)c1cc2ccccc2o1 (stereo unspecified) the results were VDR inhibitor -8%.
`C/C(=N\Nc1ccc(C#N)cc1[N+](=O)[O-])c1ccc(C)o1` gave VDR inhibitor 8%.
`Cn1c(=NC(=O)CSCC(=O)N2CCOCC2)sc2ccccc21` gave VDR inhibitor 10%.
Screening CNC(=S)Nc1cc(C(F)(F)F)ccc1Cl returned VDR inhibitor -7%.
`CCOc1ccc(Nc2nnc(Cc3ccc(OC)cc3)c(=O)[nH]2)cc1` gave VDR inhibitor 9%.
For NNc1nc(-c2ccccc2)cc(-c2ccccc2)n1 the results were VDR inhibitor -15%.
For COc1cccc(NC(=O)C2CC(=O)N(Cc3ccco3)C2)c1 (stereo unspecified) the results were VDR inhibitor -6%.
For COc1ccc(/C(N)=N/OC(=O)CSc2ccc(C)cc2)cc1 the results were VDR inhibitor 2%.
For COc1ccc(CCC(=O)NCc2nc3cccnc3n2Cc2ccc(F)cc2)cc1 the results were VDR inhibitor 9%.
`O=S1(=O)CCN(Cc2ccc(Cl)c(C(F)(F)F)c2)CC1` gave VDR inhibitor 16%.
`COc1ccccc1NC(=O)c1cnc2c(-c3ccccc3)c(C)nn2c1C` gave VDR inhibitor -5%.
`CC(C)Cn1c(CCCNC(=O)c2ccc(F)cc2)nc2ccccc21` gave VDR inhibitor 14%.
Screening CC(=O)c1cccc(NC(=O)C2CC(=O)N(c3cccc(C)c3C)C2)c1 (stereo unspecified) returned VDR inhibitor -6%.
`O=c1c2cccnc2n(Cc2ccccc2F)c(=O)n1Cc1ccccc1Cl` gave VDR inhibitor -9%.
`COc1ccc(NC(=O)CCCNC(=O)c2ccc(Cl)cc2)c(OC)c1` gave VDR inhibitor -4%.
O=Cc1sc([O-])nc1-[n+]1ccc2ccccc2c1 was read as VDR inhibitor 1%.
For O=c1c(-c2ccc(Cl)cc2)nc2cnc(N3CCNCC3)nc2n1Cc1ccc(F)cc1 the results were VDR inhibitor 34%[activator].
`Cc1nc2c(C(=O)NCCCN(CC(C)C)CC(C)C)cnn2c(C)c1Cc1c(F)cccc1Cl` gave VDR inhibitor 22%.
`CCC(CC)c1nnc(NC(=O)c2ccc(N3CCCCC3)c([N+](=O)[O-])c2)s1` gave VDR inhibitor -11%.
Screening COc1cccc(NC(=O)CC2C(=O)NCCN2C(=S)Nc2ccc(F)cc2)c1 (stereo unspecified) returned VDR inhibitor -8%.
CC(C)CCNC(=O)CSc1nc2ccccc2c(=O)[nH]1 was read as VDR inhibitor -8%.
`Cc1c(OCC(=O)N(C)C)ccc2c3c(c(=O)oc12)CCCCC3` gave VDR inhibitor -4%.
`CCOc1ccccc1-c1nc(SCC(=O)O)n[nH]1` gave VDR inhibitor -10%.
`COc1c2c(cc3c1C(NC(N)=O)[N+](C)(C)CC3)OCO2` (stereo unspecified) gave VDR inhibitor 0%.
Screening Cn1ccnc1C(O)(c1ccccc1)c1nccn1C returned VDR inhibitor 31%.
COc1ccc(CCNC(=O)CCOc2ccc(C)cc2)cc1OC was read as VDR inhibitor -8%.
For c1ccc(COc2cccc(CNn3cnnc3)c2)cc1 the results were VDR inhibitor -8%.
`CC1CCCN(C(=O)c2ccc(-c3ccccc3Cl)o2)C1` (stereo unspecified) gave VDR inhibitor 5%.
For Cc1ccc(CNC(=O)C2CCCN(S(=O)(=O)c3cn(C)cn3)C2)cc1 (stereo unspecified) the results were VDR inhibitor 5%.
`O=C(NCc1ccc(F)cc1)c1ccc(NC(=O)N2CC3CCCN3c3ccccc32)cc1` (stereo unspecified) gave VDR inhibitor 24%.
For CCCCC(=O)NC(=S)NNC(=O)CC#N the results were VDR inhibitor -1%.
Cc1cc(=O)oc2cc(OCC(=O)N3CC(C)OC(C)C3)ccc12 (stereo unspecified) was read as VDR inhibitor 28%.
Screening COc1ccc(-c2cccc(NC(=O)COc3ccc(Cl)cc3)c2)nn1 returned VDR inhibitor -9%.
For COc1cc2cnc(-c3ccsc3)c(-c3ccc(F)cc3)c2cc1OC the results were VDR inhibitor -17%.
For O=C(Nc1ccc2c(c1)CCCN2C(=O)c1cccs1)c1cccc(C(F)(F)F)c1 the results were VDR inhibitor 0%.
N=C(N=C(N)N)N1CCc2ccccc21 was read as VDR inhibitor 2%.
Screening CCc1cc(CNC(=O)CC2C(=O)NCCN2Cc2cccc(OC)c2)on1 (stereo unspecified) returned VDR inhibitor 0%.
For CCOc1ccccc1C(=O)N(Cc1cccs1)c1ccc(Cl)cc1 the results were VDR inhibitor 18%.
Screening CC(O)(CS(=O)(=O)Cc1ccccc1)c1ccccc1Cl (stereo unspecified) returned VDR inhibitor -22%.
Screening Cc1ccccc1NC(=S)N1CCC(C(=O)c2ccc(F)cc2)CC1 returned VDR inhibitor 2%.
CC(C)Oc1cccc(C(=O)NC2=NCCS2)c1 was read as VDR inhibitor -6%.
For Cc1cc(NC(=O)CSc2ncc(C(F)(F)F)cc2Cl)no1 the results were VDR inhibitor -8%.
`COc1ccc(N(CC(=O)NC2CCCCC2)C(=O)CCCC(=O)Nc2ccccn2)c(OC)c1` gave VDR inhibitor -4%.
`CCn1c(=N)n(CC(=O)OC)c2ccccc21` gave VDR inhibitor -12%.
Screening Cc1ccc(NC(=O)c2ccccc2NC(=O)CCC(=O)O)cc1 returned VDR inhibitor 4%.
Screening O=S(=O)(c1ccc2c(c1)nc1n2CCC1)N1CCOCC1 returned VDR inhibitor -6%.
`Cc1ccc(NC(=O)c2ncn(CC(=O)N[C@H](C)c3cccc4ccccc34)n2)cc1C` gave VDR inhibitor -7%.
O=[N+]([O-])c1ccc2c(c1)oc1ccccc12 was read as VDR inhibitor 2%.
`CCS(=O)(=O)N1CCC(C(=O)Oc2ccccc2Cl)CC1` gave VDR inhibitor -13%.
For O=C(CN1C(=O)CC(c2ccc(F)cc2)=Nc2ccccc21)NCc1ccccc1Cl the results were VDR inhibitor 5%.
For CCCCC(C(=O)O)C(C)CC(=O)NNC(=O)c1ccco1 (stereo unspecified) the results were VDR inhibitor -5%.
`O=C(O)C1CC=CCC1C(=O)NNc1ccccc1` (stereo unspecified) gave VDR inhibitor -12%.
For CC(=O)O[C@H]1[C@H](C)OC=C[C@@H]1OC(C)=O the results were VDR inhibitor -6%.
Screening Cc1cc(C#Cc2c(-c3ccccc3)n(C)c3ccccc23)ccc1F returned VDR inhibitor -15%.
CCc1ccc(N2C(=O)c3sc4nnc(-c5ccccc5)c(=O)n4c3C2=O)cc1 was read as VDR inhibitor 7%.
`COc1ccc2c(CNCc3cccs3)c(C(=O)O)n(Cc3ccc(F)cc3)c2c1` gave VDR inhibitor 1%.
`CCCCC1CCC(C(=O)Nc2ccccc2)CC1` (stereo unspecified) gave VDR inhibitor 4%.
For Cc1ccc(S(=O)(=O)N2CCOCC2)cc1C(=O)NC(=S)N1CC(C)OC(C)C1 (stereo unspecified) the results were VDR inhibitor -12%.
Cc1nc2c3ccccc3n(Cc3ccccc3F)c2s1 was read as VDR inhibitor 45µM*.
CCC(CC)=C(C#N)C(=O)NC1CCCCC1 was read as VDR inhibitor -5%.
For O=c1oc2ccc3ccccc3c2cc1-c1nc2c(s1)CCc1ccccc1-2 the results were VDR inhibitor -6%.
For COc1cc(C=C(c2nc3ccccc3s2)c2nc3ccccc3s2)cc(OC)c1O the results were VDR inhibitor 5%.
For CCc1nnc(NC(=O)C2CC(=O)N(CCc3ccccc3)C2)s1 (stereo unspecified) the results were VDR inhibitor 0%.
`Cc1cc(NC(=O)CN2C(=O)CC(c3ccco3)Sc3ccccc32)no1` (stereo unspecified) gave VDR inhibitor -17%.
For O=c1[nH]c2cc3c(cc2cc1CN(CCO)S(=O)(=O)c1ccccc1Cl)OCCO3 the results were VDR inhibitor -6%.
Screening CC1CCN(S(=O)(=O)c2ccc(S(=O)(=O)NCC(=O)C(C)(C)C)cc2)CC1 returned VDR inhibitor 1%.
`CCCn1c(=O)[nH]c(=O)c2c1nc(-c1cccs1)n2CCOC` gave VDR inhibitor -11%.
COc1cc(C(=O)Nc2ccccc2NC(=O)c2cc(OC)c(OC)c(OC)c2)cc(OC)c1OC was read as VDR inhibitor 4%.
`Cc1ccc(C(=O)Nc2ccc(NC(=O)c3cccs3)cc2)c(C)c1` gave VDR inhibitor -3%.
Cc1ccc(-c2[nH]c(-c3ccccc3)nc2SCC(=O)NCC2CCCO2)cc1 (stereo unspecified) was read as VDR inhibitor -19%&-19%.
`O=C(/C=C/c1cccc(Cl)c1)NCc1cccs1` gave VDR inhibitor -15%.
Cc1ccc(NC(=O)CN2CCSc3ccc(S(=O)(=O)N4CCCC4)cc32)cc1 was read as VDR inhibitor 18%.
Screening Cc1ccc(Nc2cc(-n3nc(C)cc3C)ncn2)cc1 returned VDR inhibitor 7%.
Screening Cn1c(SCC(=O)NCC2COc3ccccc3O2)nnc1C(F)(F)F (stereo unspecified) returned VDR inhibitor -5%.
For CN(C)CCNc1ncnc2sc(-c3ccccc3)cc12 the results were VDR inhibitor -9%.
Screening O=C(O)/C=C1\CCCc2ccccc2C1O (stereo unspecified) returned VDR inhibitor inconclusive.

Continued; the last 3 above are carried over.
Screening Cn1c(SCC(=O)NCC2COc3ccccc3O2)nnc1C(F)(F)F (stereo unspecified) returned VDR inhibitor -5%.
For CN(C)CCNc1ncnc2sc(-c3ccccc3)cc12 the results were VDR inhibitor -9%.
Screening O=C(O)/C=C1\CCCc2ccccc2C1O (stereo unspecified) returned VDR inhibitor inconclusive.
For Cc1ccc(NC(=O)CN2C(=O)c3ccccc3C2=O)nc1 the results were VDR inhibitor -6%.
Screening COc1cccc(NC(=O)c2nnn(Cc3ccc(OC)c(Br)c3)c2N)c1 returned VDR inhibitor 5%.
Screening CN1c2ccccc2-c2nc3ccccc3n2C1c1ccco1 (stereo unspecified) returned VDR inhibitor -29%.
O=C1C(C2=NC(C(=O)O)C3C(=O)N(c4ccccc4)C(=O)C23)=C(O)c2ccccc21 (stereo unspecified) was read as VDR inhibitor -15%.
`Cc1cccc2nc(C(=O)Nc3cccc(C(=O)NC4CC4)c3)cn12` gave VDR inhibitor 3%.
Screening N#Cc1ccccc1S(=O)(=O)N1CCN(c2ccc(S(=O)(=O)N3CCOCC3)cn2)CC1 returned VDR inhibitor 22%.
O=C(O)CNC(=O)/C(=C\c1ccc2c(c1)OCO2)NC(=O)c1ccc(Br)cc1 was read as VDR inhibitor 8%.
Screening O=C(O)CCn1c2ccccc2c2nc3ccccc3nc21 returned VDR inhibitor 3%.
For CCCc1cc(N2CCN(C(=O)c3ccco3)CC2)n2c(nc3ccccc32)c1C#N the results were VDR inhibitor -3%.
`COc1ccc(S(=O)(=O)NCC(=O)N(CC(=O)NCC2CCCO2)c2ccccc2C)cc1` (stereo unspecified) gave VDR inhibitor 21%.

Screening results from PubChem.

Some of the compounds tested, so the mix of outcomes need not match the whole.
